# High-throughput results deposited in PubChem BioAssay by several laboratories.
# Mtb betalactam = beta-lactam sensitization of Mtb H37Rv; AID 434955; M. tuberculosis H37Rv growth with meropenem, percent inhibition; hits of this screen are not shown here; actives 0.27% (n = 330,000); inhibition, % at 25 µM;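 active means about 74% or more and at least 40 points above the plate without the antibiotic, then above 30% in a dose series; inconclusive means first-round hits that could not be retested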;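 further: growth measured after seven days incubation then overnight dye step; 0% = bacteria only wells and 100% = bacteria with antibiotic; twin plates without the antibiotic show which effects depend on it; some results filed as inactive read as strong as hits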
# Arbovirus inh = antivirals against arbovirus infection; arbovirus infection cell-based antiviral screen; inhibition, % at 10 µM; actives 0.37% (n = 200,000);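 active means inhibition from about 30%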;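 further: bluetongue infection of BSR cells; cell survival read as ATP light after 72 h; 0% = infected wells without compound and 100% = uninfected wells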
# YopH inh = YopH (Yersinia) phosphatase inhibition | inhibition, %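 (about 10 µM by stock and volumes)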 | fluorescence Ex485/Em525 | actives 0.16% (n = 140,000) | AID 898;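 active means inhibition of 50% or more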;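 further: controls were vehicle for no effect and minimum signal wells for full effect; inactives centre near -20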
# Mtb growth = M. tuberculosis H37Rv growth inhibitors, H37Rv strain (AID 1626); M. tuberculosis H37Rv growth inhibition; higher % means a stronger effect; inhibition, % at 10 µM; hits with a dose series show IC50 in µM; actives 0.95% (n = 220,000);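 active means confirmed in a dose series; inconclusive means inhibition above 80% but not taken into the dose series; inactive means below 80% or under 30% at every dose of the series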;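 further: bacteria incubated seven days before Alamar blue readout; 0% = bacteria only wells and 100% = bacteria with antibiotic wells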
# RecA intein inh = inhibitors of M. tuberculosis RecA intein splicing | inhibition, %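 (about 9 µM by stock and volumes)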 | P9WHJ3 | cell-free RecA intein splicing, fluorescence | actives 0.75% (n = 290,000); in the data active means inhibition above about 30%; inconclusive means no clear call, values can overlap the other calls;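 further: 0% = vehicle wells and 100% = reference inhibitor control wells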
# Target sequence (P9WHJ3 whole entry, looked up): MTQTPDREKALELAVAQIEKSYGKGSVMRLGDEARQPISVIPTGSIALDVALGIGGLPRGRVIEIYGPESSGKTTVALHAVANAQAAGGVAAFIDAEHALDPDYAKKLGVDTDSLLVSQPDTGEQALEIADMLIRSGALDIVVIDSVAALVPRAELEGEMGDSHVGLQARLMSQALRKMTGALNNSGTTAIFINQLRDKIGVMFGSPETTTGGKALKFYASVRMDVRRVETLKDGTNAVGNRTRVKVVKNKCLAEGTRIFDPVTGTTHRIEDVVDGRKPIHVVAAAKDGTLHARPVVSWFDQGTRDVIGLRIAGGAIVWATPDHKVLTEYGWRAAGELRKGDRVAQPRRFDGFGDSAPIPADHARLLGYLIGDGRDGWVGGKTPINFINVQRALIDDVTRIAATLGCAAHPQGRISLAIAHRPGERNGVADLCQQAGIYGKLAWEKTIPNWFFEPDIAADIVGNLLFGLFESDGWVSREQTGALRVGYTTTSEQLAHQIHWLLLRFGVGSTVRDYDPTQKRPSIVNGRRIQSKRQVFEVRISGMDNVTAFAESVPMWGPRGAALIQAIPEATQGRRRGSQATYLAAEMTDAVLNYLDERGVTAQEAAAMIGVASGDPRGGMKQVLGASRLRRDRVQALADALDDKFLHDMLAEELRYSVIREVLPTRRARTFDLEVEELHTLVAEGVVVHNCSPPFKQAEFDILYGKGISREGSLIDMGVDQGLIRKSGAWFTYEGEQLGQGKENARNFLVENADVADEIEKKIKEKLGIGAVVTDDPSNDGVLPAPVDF
# Arbovirus inh repeat = second read-out of Arbovirus inh, no call of its own (marks repeat the call); inhibition, %; measured here: 10K subset replicate screen; many hits read low in the repeat;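 first of two repeat runs on a subset; 0% = infected and 100% = uninfected wells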
# Active calls of the source: *; ? = inconclusive; / = not tested or not shown. Not all compounds are listed; count on the stated rates, not on these rows.
SMILES,Mtb betalactam,Arbovirus inh,YopH inh,Mtb growth,RecA intein inh,others
CCCc1nnc(NC(=O)c2ccc(N3C(=O)C4C5C=CC(C5)C4C3=O)cc2)s1 (configuration not stated),-1,9,-21,-9%,1.2,
COc1ccc(NC(=O)N2CCCC2C(=O)NCc2cccs2)cc1 (configuration not stated),-7,/,/,/,-0.5,
Cc1cccc2sc(NC(=O)CCNS(=O)(=O)c3cccc4nonc34)nc12,-2,1,-10,-2%,/,Arbovirus inh repeat=-3
CCc1ccc(NC(=O)N(CCCN2CCOCC2)Cc2cccs2)cc1,-4,1,-48,/,0.6,
Cc1c(C(=O)Nc2cccc(Cl)c2)cn2c(nc3ccccc32)c1C#N,7,-4,-15,6%,-7.3,
Cn1c(SCc2cccc(Br)c2)nc2c1c(=O)[nH]c(=O)n2C,2,/,/,/,-1.7,
Cc1ccc2c(c1)c1c3n2CCN(CCC(=O)O)C3CCC1 (configuration not stated),2,/,/,/,-4.4,
O=C(Nc1ccon1)c1ccc(Br)s1,-1,/,/,/,-6.7,
CN1CCN(NC(=O)c2ccc(F)cc2)CC1,-5,-1,-7,/,-4.2,
COCCN(Cc1cc2c(C)cc(C)cc2nc1Cl)C(=O)c1ccccc1F,-2,11,/,12%,-4.3,
O=c1c(-c2ccccc2)c(O)cc(-c2ccncc2)n1-c1ccc(Cl)cc1,6,5,/,-6%,4.0,
Oc1ccccc1C1=Nc2ncnn2C(c2ccc(F)cc2)C1 (configuration not stated),89,14,/,6%,4.1,
Cc1ccc(C(=O)NN2CCOCC2)cc1[N+](=O)[O-],-6,/,/,/,0.1,
O=C(OCCCN=C1NS(=O)(=O)c2ccccc21)c1ccccc1F,9,4,-5,-5%,-0.3,
Cc1cc2cccc(C)c2nc1SCC(=O)NCC1CCCO1 (configuration not stated),-3,-9,/,3%,-0.4,
Cc1nnc(SCC(=O)c2ccc([N+](=O)[O-])cc2)s1,-1,3,/,-1%,-3.1,
CN(CCc1ccccn1)C(=O)CCC1CCCN(C(=O)CN2CCCCCC2)C1 (configuration not stated),-6,4,/,10%,-2.4,
CC1SC(c2cccc(Cl)c2)NC1=O (configuration not stated),4,-6,1,-5%,1.2,
Cc1ccc(S(=O)(=O)NCC2CCC(C(=O)NCc3ccccn3)CC2)cc1 (configuration not stated),-9,3,/,0%,-1.6,
COc1ccc2cc(S(=O)(=O)N3CCCC3)ccc2c1,-14,/,/,/,2.4,

# Of the compounds above, these have a carbonyl joined to an NH by a bond outside any ring:
SMILES,Mtb betalactam,Arbovirus inh,YopH inh,Mtb growth,RecA intein inh,others
CCCc1nnc(NC(=O)c2ccc(N3C(=O)C4C5C=CC(C5)C4C3=O)cc2)s1 (configuration not stated),-1,9,-21,-9%,1.2,
COc1ccc(NC(=O)N2CCCC2C(=O)NCc2cccs2)cc1 (configuration not stated),-7,/,/,/,-0.5,
Cc1cccc2sc(NC(=O)CCNS(=O)(=O)c3cccc4nonc34)nc12,-2,1,-10,-2%,/,Arbovirus inh repeat=-3
CCc1ccc(NC(=O)N(CCCN2CCOCC2)Cc2cccs2)cc1,-4,1,-48,/,0.6,
Cc1c(C(=O)Nc2cccc(Cl)c2)cn2c(nc3ccccc32)c1C#N,7,-4,-15,6%,-7.3,
O=C(Nc1ccon1)c1ccc(Br)s1,-1,/,/,/,-6.7,
CN1CCN(NC(=O)c2ccc(F)cc2)CC1,-5,-1,-7,/,-4.2,
Cc1ccc(C(=O)NN2CCOCC2)cc1[N+](=O)[O-],-6,/,/,/,0.1,
Cc1cc2cccc(C)c2nc1SCC(=O)NCC1CCCO1 (configuration not stated),-3,-9,/,3%,-0.4,
Cc1ccc(S(=O)(=O)NCC2CCC(C(=O)NCc3ccccn3)CC2)cc1 (configuration not stated),-9,3,/,0%,-1.6,

# Further compounds.
SMILES,Mtb betalactam,Arbovirus inh,YopH inh,Mtb growth,RecA intein inh,others
Cc1ccc(Nc2nc(N)nc(CSC(=S)N3CCN(c4ccccc4)CC3)n2)cc1,95,-2,-15,12%,9.7,
Cc1ccc(C(=O)NCCOc2ccc(Cl)cc2)cc1,5,/,/,/,-2.0,
CCCCC(=O)NCCc1cc2c(OC)ccc(OC)c2[nH]c1=O,-6,5,-41,/,2.3,
NS(=O)(=O)c1ccc(CCNC(=O)c2ccc(NS(=O)(=O)c3ccc4[nH]c(=O)[nH]c4c3)cc2)cc1,-6,/,/,/,3.3,
COCCNc1nc(-c2cc3ccccc3o2)cs1,2,8,-30,3%,0.0,
COc1cc(NC(=S)Nc2ccccn2)cc(OC)c1,25,6,-27,15%,3.0,
NS(=O)(=O)c1cc2c(cc1Cl)NC(CC1CCCC1)NS2(=O)=O (configuration not stated),-1,/,/,-9%,-1.0,
CN(C)c1ccc(N=Nc2ccccc2C(=O)OCC(=O)N2CCCCCC2)cc1,28,6,-25,1%,2.4,
COc1ccc(NC(=O)c2cc(-c3ccc(C)cc3O)n[nH]2)c(OC)c1,64,/,/,/,0.7,
Fc1ccccc1Cn1c2[n+](c3ccc(C(F)(F)F)cc31)CCCCC2,9,2,/,-3%,-1.1,
CCOc1ccc(S(=O)(=O)N2CCN(c3ccc(C)cc3C)CC2)cc1,4,23,-33,-1%,9.7,Arbovirus inh repeat=17
Cn1cc(S(=O)(=O)NC(c2ccccc2)c2ccccc2)c(=O)n(C)c1=O,-7,/,/,6%,2.7,
CC(C)=CCc1c(O)ccc(C(=O)Cc2ccccc2)c1O,-11,7,-26,3%,15,
CC(NS(=O)(=O)c1cc2c3c(c1)CCC(=O)N3CCC2)c1ccccc1 (configuration not stated),-5,/,/,/,-0.9,
Cc1ccc2nsnc2c1NC(=O)c1cccnc1Cl,1,1,-35,-8%,/,
CC1(C)OC(=O)C(=CNCC(=O)NCC(=O)O)C(=O)O1,-1,7,-48,4%,-3.2,
CNCc1ccccc1OCC(=O)Nc1ccccc1,-7,2,1,-6%,-6.7,
COc1ccc(NC(=O)Cn2nnc(-c3ccccc3NC(=O)c3cccs3)n2)cc1,-10,-10,-31,-2%,-0.3,
CCOc1ccc(/C=C/C2=CC(C)(C)NC(=S)N2)cc1,-1,21,/,6%,4.2,
CCOC(=O)C(=O)/C(C#N)=C/Nc1ccc(Cl)cc1,18,0,-39,-2%,-2.1,
O=C(COC(=O)c1ccco1)c1ccccc1,2,/,/,/,-1.1,
CC(C)=C(NC(=O)c1ccccc1)C(=O)N/N=C/c1ccc(O)cc1,5,-3,-35,4%,-3.4,
O=C(CCN1C(=O)c2ccccc2C1=O)Nc1ccccc1C(F)(F)F,8,/,/,/,12,
COc1ccc(C(=O)Nc2ccc3c(c2)OCCO3)cc1[N+](=O)[O-],0,0,/,7%,2.2,
CCN(CC)C(=O)c1cnn(-c2ccccc2)c1NC(=O)c1ccccc1F,-5,1,-18,-2%,0.4,
Cn1c(SCC(=O)NCc2ccc(F)cc2)ncc(C(=O)Nc2ccccc2)c1=O,-7,/,/,/,5.7,
CCOC(=O)Cc1csc(NC(=S)NC(=O)C(C)(C)C)n1,0,-6,-24,-7%,-2.3,
CCOc1ccc(NC(=O)N2CCN(C(=O)c3ccco3)CC2)cc1,-1,/,/,/,-0.5,
Cn1ncc(Br)c1C(=O)Nc1ccc(Cl)cn1,-10,-9,-46,1%,1.0,
COc1cc(CNC(C)c2ccccc2)cc(Br)c1OCc1ccccc1 (configuration not stated),96,/,/,/,12,
O=C(COc1ccc(Br)cc1)N1CCN(S(=O)(=O)/C=C/c2ccccc2)CC1,-6,8,-9,9%,-0.2,
CCOc1ccc(NC(=O)C(CC)NC(=O)c2ccccc2CO)cc1 (configuration not stated),-9,15,-29,3%,-2.2,
CCn1c(SCC(=O)Nc2nc3ccc(C)cc3s2)nc2c(c1=O)SC(C)C2 (configuration not stated),99,3,-49,79%,0.7,
O=C(Cn1cnc2ccccc2c1=O)c1ccc(Br)cc1,-9,0,/,-7%,-2.1,
CCOc1cc(N2CCOCC2)c(OCC)cc1NC(=O)CSc1cccc[n+]1[O-],-2,4,12,1%,0.9,
CC(=O)c1c(C)n(C)c2ccc(OC(=O)c3ccco3)cc12,97,7,43,61%,5.9,
O=C(c1sc2cccc(Cl)c2c1Cl)N1CCN(CCc2ccccn2)CC1,?,/,/,/,6.7,
O=S(=O)(NCC1CCCO1)c1cccc(C(F)(F)F)c1 (configuration not stated),-9,-1,-164,-1%,-2.7,
COc1cccc(/C=C2/C(=O)NN(c3ccc(F)cc3)C2=O)c1,41,/,/,/,-5.6,
COCCNC(=S)N1CCN(Cc2ccc3c(c2)OCO3)CC1,-5,/,/,/,0.6,
Cc1cccc(NC(=O)CN2C(=O)N/C(=C/c3cc(C)n(C)c3C)C2=O)c1,/,20,/,0%,/,
CCCOC(=O)c1ccc(NC(=O)CC(C)(C)C)cc1,12,-10,/,-1%,-0.3,
COC(=O)C1=C[C@@H](C(=O)OC)[C@@H]2C3=C(C(=O)[C@@]2(C)NC(=O)c2ccccc2)[C@H](C)C(C(=O)OC)=C(C(=O)OC)[C@@H]3C1,-4,/,/,3%,0.0,
COc1cccc(NC(=O)Nc2cc(C)ccc2F)c1,?,0,-32,-4%,-4.7,
COCCNC(=O)COC(=O)/C=C/c1cnc2ccccc2n1,-4,4,-29,0%,-74,
Cc1cc(C)cc(NC(=O)NN2C(C)CCCC2C)c1 (configuration not stated),-3,4,/,-7%,-0.6,
N#CCCC12CCCCC1=Nc1ccccc12 (configuration not stated),-2,0,-20,-6%,-4.1,
CCOCCn1c(CN2CCN(c3ccccc3)CC2)nc2c1c(=O)n(C)c(=O)n2C,3,/,-16,-8%,1.9,
Cc1cccc2c1cnn2C(=O)Nc1ccc(Br)cc1F,-2,/,/,/,-1.8,
COc1ccc(/C=C2\CCCC3C2=NN(C(=O)c2scnc2C)C3c2ccc(OC)cc2)cc1 (configuration not stated),0,-9,1,24%,25,
Fc1ccc(F)c(CNc2ncnc3cc(Cl)ccc23)c1,-3,/,/,/,1.7,
CC(C)Cc1nnc(NC(=O)CSc2nc(-c3ccccc3)cc(=O)[nH]2)s1,-4,13,/,-3%,-3.9,
COc1ccc(C(=O)NC2CCN(C(=S)Nc3cccc(C)c3)CC2)cc1,10,-1,-24,-4%,-1.0,
COC(=O)CCC(=O)c1oc2ccccc2c1NC(=O)CCCN1C(=O)c2ccccc2C1=O,-4,-11,-52,7%,-3.6,
CCCCCCCc1ccc(-c2ccc(O)cc2)nc1,2,-15,/,1%,17,
O=C(NC1CCCc2ccccc21)C1CCC(CNS(=O)(=O)c2cccc3nsnc23)CC1 (configuration not stated),0,1,-20,2%,-0.3,
COc1ccccc1CNC(=O)C(C)Oc1ccccc1 (configuration not stated),1,/,/,/,-1.1,
O=C(Cn1nnc2c(cnn2-c2ccc(F)cc2)c1=O)OC1CCCCC1,77,7,-37,-12%,1.3,
Brc1ccccc1C1N=C(c2ccccc2)NO1 (configuration not stated),3,/,/,/,3.3,
COc1cccc(C=Nc2ccccc2C(=O)Nc2nccs2)c1OC,-4,1,6,-8%,-8.2,

# The results go on:
SMILES,Mtb betalactam,Arbovirus inh,YopH inh,Mtb growth,RecA intein inh,others
Cc1ccc(-n2nc3cc(C)c(NC(=S)NC(=O)/C=C/c4ccco4)cc3n2)cc1,4,1,-12,4%,5.6,
CCCCOc1ccccc1NC(=O)CC1SC(=NCC)N(CC)C1=O (configuration not stated),2,1,-38,4%,2.2,Arbovirus inh repeat=3
CCN(CC)CCNC(=O)c1cn(CCOC)c(=O)c2c1c1ccccc1n2C,2,/,/,/,-8.4,
Cc1ccc(NC(=O)c2ccc(NS(=O)(=O)c3cccc4cccnc34)cc2)cc1,17,/,/,/,0.6,
CCOC(=O)c1[nH]c2ccccc2c1NC(=O)CN1CCCCC1,1,-5,10,-1%,-0.3,
Cc1cc(C)nc(SCC(=O)Nc2ccc3c(c2)OCO3)n1,11,/,/,/,0.2,
COc1ccccc1Nc1cc(C(=O)NCc2cccnc2)c2ccccc2n1,-9,/,/,4%,-5.5,
C/C=C/c1ccc(OCCn2cncn2)c(OC)c1,-5,-4,10,0%,/,

# Entries above that have a cyano group, in the order listed:
SMILES,Mtb betalactam,Arbovirus inh,YopH inh,Mtb growth,RecA intein inh,others
Cc1c(C(=O)Nc2cccc(Cl)c2)cn2c(nc3ccccc32)c1C#N,7,-4,-15,6%,-7.3,
CCOC(=O)C(=O)/C(C#N)=C/Nc1ccc(Cl)cc1,18,0,-39,-2%,-2.1,
N#CCCC12CCCCC1=Nc1ccccc12 (configuration not stated),-2,0,-20,-6%,-4.1,
